Screening results from PubChem.
D2 PAM: Beta-Arrestin HTS for Positive Allosteric Modulators of the Human D2 Dopamine Receptor: Potentiators. D(2) dopamine receptor (Homo sapiens), P14416. DiscoveRx D2 beta-arrestin cells, luminescence, 90 min; 100% = 57 uM dopamine signal. potentiation, % (concentration not given with the values). 360,000 tested, 0.23% active. AID 624464, 2012; active = potentiation of 50% or more; inconclusive = 30% to 50%; inactive = 30% or less;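 note: compound concentration not given in the record; tested on top of an EC20 dose of dopamine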
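PathHunter D2 cells, attached overnight at 37 deg C, received compound in DMSO plus dopamine at EC20 (50 nM final) for 90 min at 37 deg C. Beta-arrestin recruitment was read as luminescence after 1 h with detection reagent at ambient temperature.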
D2 ag: Beta-Arrestin HTS for Positive Allosteric Modulators of the Human D2 Dopamine Receptor: Agonists | DiscoveRx PathHunter D2 beta-arrestin, luminescence, 90 min; 100% = 57 uM dopamine signal | AID 624465, 2012 | 360,000 tested, 0.084% active | activation, % (test concentration not listed) | D(2) dopamine receptor (Homo sapiens), P14416; in the data active = activation above about 40%; inconclusive = about 15% to 40%; inactive = below about 15%; note: compound concentration not given in the record; the text of the record calls up to 30% inactive
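Agonist mode: compounds alone added to overnight-plated D2 PathHunter cells for 90 min at 37 C, with 57 uM final dopamine (EC100) defining full response. Beta-arrestin recruitment detected by chemiluminescent reagent, read after 1 h at ambient temperature.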
Sfp inh: qHTS Assay for Inhibitors of Bacillus subtilis Sfp phosphopantetheinyl transferase (PPTase); 4'-phosphopantetheinyl transferase ffp (Bacillus subtilis), Q9F4F7; Biochemical Sfp PPTase activity, qHTS; Potency, µM, for the others: max response, negative = inhibition, actives largely listed as inhibitors; 310,000 tested, 3.5% active; active = well fitted inhibition curve with a large enough effect; inconclusive = small, poorly fitted or top-dose-only effect, or another doubt; inactive = no such curve, though single readings can be large or run the other way;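 note: the enzyme is Sfp with the accession as filed and its product quenches rhodamine fluorescence; potency is the fitted concentration of half-maximal effect; 0% = enzyme reaction without inhibitor and -100% = no enzyme wells; top concentration of the series not given in the record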
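Sfp 15 nM + cpd, 15 min RT; start w/ rhodamine-CoA 5 uM, BHQ-2-YbbR 12.5 uM (final); 50 mM Hepes pH 7.6, 10 mM MgCl2, 0.01% NP-40, 0.01% BSA; read 525/598 nm at 0 and 30 min.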
CtBP-E1A blk: qHTS Assay for Inhibitors of the CtBP/E1A Interaction; CtBP / adenovirus E1A interaction (AlphaScreen); AlphaScreen GST-E1A/His-CtBP binding, 1536-well; hits give low values; control for the full effect not named in the record; activity change, % (test concentration not listed); 340,000 tested, 0.49% active; AID 651724, 2012; in the data active means activity change below about -65%; inconclusive means about -30% to -65%; inactive means above about -30%; note: % is set by controls: 0 for no effect and ±100 for the full control effect; compound concentration not given in the record
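Protein mix (5X: 125 nM each GST-E1A, His-CtBP) was incubated with pinned compound 2 h at 37 deg C in dark, in 50 mM Tris pH 8.0 buffer with 300 mM NaCl. Glutathione donor and nickel acceptor beads followed; AlphaScreen signal read after 1 h.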
TRPV1 PAM: HTS Assay for Compounds that Act as Potentiators of the Vanilloid Receptor 1; 320,000 tested, 0.02% active; potentiation, % at 8.33 µM; AID 540277, 2011; TRPV1-expressing cells, Fluo-8 calcium influx, capsaicin EC20 potentiation; host cell line not named in the record; control for the full effect not named in the record; Transient receptor potential cation channel subfamily V member 1 (Homo sapiens), Q8NER1; active means potentiation above 80%; inconclusive means 30% to 80%; inactive means below 30%; note: 0% is about no effect
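TRPV1-expressing cells were cultured overnight at 35.5C and loaded with Fluo-8 calcium dye for 40 to 90 min at room temperature. After a 10 s baseline, compound was added and calcium influx was read kinetically for 3 min (ex 480/em 520 nm).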
Six1-Eya2 inh: qHTS Assay for Inhibitors of the Six1/Eya2 Interaction | AlphaScreen GST-Six1/His-Eya2 binding, biochemical; hits give low values; control for the full effect not named in the record | activity change, % (concentration not given with the values) | 360,000 tested, 0.56% active | AID 651725, 2012; in the data active = activity change below about -65%; inconclusive = about -30% to -65%; inactive = above about -30%; note: % is set by controls: 0 for no effect and ±100 for the full control effect
Target sequence (O00167 whole entry, looked up): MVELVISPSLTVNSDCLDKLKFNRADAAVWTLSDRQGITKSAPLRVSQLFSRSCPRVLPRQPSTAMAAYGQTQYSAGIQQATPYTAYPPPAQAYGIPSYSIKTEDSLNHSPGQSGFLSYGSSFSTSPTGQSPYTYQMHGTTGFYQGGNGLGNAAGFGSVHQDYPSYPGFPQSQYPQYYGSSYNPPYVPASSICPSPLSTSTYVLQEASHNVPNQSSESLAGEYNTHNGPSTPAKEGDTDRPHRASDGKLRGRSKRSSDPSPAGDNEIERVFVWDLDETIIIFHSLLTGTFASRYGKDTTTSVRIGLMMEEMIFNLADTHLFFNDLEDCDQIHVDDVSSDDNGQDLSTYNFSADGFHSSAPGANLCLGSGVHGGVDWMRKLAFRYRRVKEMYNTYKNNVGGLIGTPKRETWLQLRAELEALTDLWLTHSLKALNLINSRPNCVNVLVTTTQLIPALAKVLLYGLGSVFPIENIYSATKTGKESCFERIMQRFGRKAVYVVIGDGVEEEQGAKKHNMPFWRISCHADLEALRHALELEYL
Target sequence (Q15475 whole entry, looked up): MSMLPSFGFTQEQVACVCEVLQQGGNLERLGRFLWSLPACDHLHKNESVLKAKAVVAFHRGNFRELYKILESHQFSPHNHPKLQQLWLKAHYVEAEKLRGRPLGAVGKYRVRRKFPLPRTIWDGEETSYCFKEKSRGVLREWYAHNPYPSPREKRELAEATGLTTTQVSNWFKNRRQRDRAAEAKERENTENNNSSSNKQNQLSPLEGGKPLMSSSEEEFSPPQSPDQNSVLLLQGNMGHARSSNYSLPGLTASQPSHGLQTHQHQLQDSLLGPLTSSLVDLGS
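AlphaScreen with GST-Six1 and His-Eya2 (5X mix: 250 nM and 500 nM), glutathione donor and nickel acceptor beads; buffer 50 mM Tris pH 8.0, 300 mM NaCl, 1 mM TCEP; 1 h at 37 C in the dark.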
PINK1 modulator: A Quantitative High throughput Screen to Identify Chemical Modulators of PINK1 Expression; PINK1 immunofluorescence, high-content cytometry, 24 h; Potency, µM (highest dose often 76.6 µM), for inactives: at the top dose activation (PINK1 increase), most hits filed as activators; 410,000 tested, 0.2% active; AID 624263, 2012; active = well fitted activation curve with a large enough effect; inconclusive = small, poorly fitted or top-dose-only effect; inactive = flat fitted curve, though single readings scatter; cell line not stated here;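 note: potency is the fitted concentration of half-maximal effect; % of control where 0% means no effect; nearly all actives have a fitted effect of over 65% in size; a mitochondrial uncoupler was the plate control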
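Stable cell line treated 24 h with compounds at 5 concentrations (CCCP controls), then fixed and immunostained for PINK1 plus nuclear and cell stains; PINK1 immunofluorescence quantified by laser-scanning microplate cytometry.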
Starred values were filed as active, the others as inactive; ? = inconclusive; . = not tested or not shown; [ ] = dose if it differs, or a comment.

Each structure is followed by: Sfp inh	CtBP-E1A blk	PINK1 modulator	D2 ag	TRPV1 PAM	D2 PAM	Six1-Eya2 inh
CC(C)C[C@H](NC(=O)OC(C)(C)C)C(=O)N[C@@H](CO)[C@H](O)[C@@H]1C[C@@H]1C(=O)NC1CC1
  12%	3	1.7%	-0.6	20	-3	-1
Cc1cc2nc(-c3ccco3)c(Cc3ccccc3C(F)(F)F)n2c(C)c1Br
  .	0	4.9%	.	.	.	-6
CC(C)CCN1CCN(Cc2cccn2-c2nccs2)CC1CCO (stereo unspecified)
  -5%	-11	1.1%	-4.2	-13	-8	2
Cc1cccc(Sc2c([N+](=O)[O-])ncn2C)n1
  8%	-3	2.3%	1.1	22	2	4
Cc1ccc(SCc2ccc(C(=O)Nc3ccccc3Br)cc2)cc1
  4%	23	2.8%	-1.6	13	3	31
CCC(C)(C)n1nnnc1C(c1ccc(O)c(OC)c1)N1CCN(c2nc3ccccc3s2)CC1 (stereo unspecified)
  40µM*	-2	-1.3%	-0.5	20	-16	-8
Cc1ccc(CNC(=O)Nc2cccs2)cc1
  18µM*	1	0.4%	-3.4	-10	9	2
CSc1ccc(C2CC(=O)Nc3nc(SC)[nH]c(=O)c32)cc1 (stereo unspecified)
  37%[activator]	3	0.2%	-3.9	1	-2	-6
Cc1ccc(S(=O)(=O)NCC2NCCc3ccccc32)cc1 (stereo unspecified)
  0%	1	0.1%	-3.1	-25	-15	-2
COc1cc(C2OC(c3cc(OC)c(OC)c(OC)c3)C(C)C2C)cc(OC)c1OC (stereo unspecified)
  -2%	-12	0.6%	-5.1	-3	-35	-11

(cont.)
Each structure is followed by: Sfp inh	CtBP-E1A blk	PINK1 modulator	D2 ag	TRPV1 PAM	D2 PAM	Six1-Eya2 inh
Cc1ccc(C(=O)c2cc(C)sc2N)cc1
  -25%	-2	1.0%	1.9	6	-13	-18
Cn1cccc1C(=O)NC(=O)CSc1nc2ccccc2s1
  -9%	-1	-0.5%	-0.1	?	-7	-3
Cc1ccc(Sc2nnc(Cc3ccccc3)c3ccccc23)cc1
  0%	2	7.4%[38.3 µM]	-3.1	-9	-5	-2
C=CCn1c(O)c(N=NC(=O)CNC(=O)c2ccco2)c2ccccc21
  -20%	.	6.2%	-6.4	-1	-8	1
O=C(NCCCN1CCOCC1)C(C(=O)c1ccccc1)n1ccccc1=O (stereo unspecified)
  -4%	4	-2.8%	-1.9	5	-4	7
Cc1noc(C)c1C(=O)Nc1sccc1C(N)=O
  .	-12	-0.9%	0.0	.	1	-10
CC(=O)Oc1ccc(N2C(=O)[C@@H]3[C@H](C2=O)[C@H]2c4ccccc4C=NN2[C@@H]3C(C)=O)cc1
  12%	?	-1.1%	2.8	-5	-5	?
CCCCn1c(CCl)nc2cc(S(=O)(=O)N3CCOCC3)ccc21
  .	-12	-2.0%	3.0	.	-13	5
CCCCN1C(=O)Cc2c1nc(N)c1c(N)nc(N(CCC)CCC)c(C#N)c21
  2%	-10	4.1%	-4.2	2	-25	-1
O=C(NCCCn1ccnc1)c1noc2c1CCCC2
  13%	3	0.6%[38.3 µM]	-0.8	3	-9	0

Additional records.
Each structure is followed by: Sfp inh	CtBP-E1A blk	PINK1 modulator	D2 ag	TRPV1 PAM	D2 PAM	Six1-Eya2 inh
COCCN1CCn2c(nc3cc([N+](=O)[O-])ccc32)C1
  16%	5	1.1%	-0.5	-14	-4	4
O=C(COC(=O)Cc1cn2ccsc2n1)NCc1ccc2c(c1)OCO2
  -28%	3	-0.7%	-1.9	-6	-5	3
Cc1ccc(/C=N/NC(=O)c2cccnc2)o1
  -1%	-1	2.4%	4.8	10	2	-3
CCN(CC)S(=O)(=O)c1cc(NC(=O)CNc2c(C)n(C)n(-c3ccccc3)c2=O)ccc1C
  18%	14	-1.5%	2.9	4	3	-4
CC1(C)Cc2c(sc3[nH]c(=O)n(CC(=O)NCC4CCCO4)c(=O)c23)CO1 (stereo unspecified)
  3%	3	0.7%	0.1	6	0	9
CN1CCN(c2ccccc2NC(=O)Cc2cn(C)c3ccccc23)CC1
  18%	-3	2.4%	-8.3	.	-7	-9
Cn1cnnc1Sc1cc(N2CCN(S(=O)(=O)c3ccc(Cl)c(Cl)c3)CC2)ccc1[N+](=O)[O-]
  13%	-10	0.9%	-3.6	6	-23	-19
CCOC(=O)c1cnc2[nH]c3ccccc3n2c1=O
  10%	0	-0.2%	-4.8	1	-4	5
CSc1ccccc1NC(=O)CN1CC(C)OC(C)C1 (stereo unspecified)
  17%	-4	-0.5%	-1.2	4	-3	5
Cc1cc2c(=O)n(C)c(SCC(=O)c3cc4ccccc4o3)nc2s1
  1%	6	1.6%[38.3 µM]	-2.4	3	-1	-1

(continued)
Each structure is followed by: Sfp inh	CtBP-E1A blk	PINK1 modulator	D2 ag	TRPV1 PAM	D2 PAM	Six1-Eya2 inh
CC(C)OC(=O)c1nnc(-c2ccccc2)nc1OC(C)C
  -23%	-6	1.8%	-4.3	-11	-40	-10
CC1CN(C(=O)c2ccccc2)c2ccccc2NC1=O (stereo unspecified)
  2%	5	0.6%	-4.3	13	12	6
CC(C)N(C(=O)CN1CCN(S(=O)(=O)c2ccc(Br)s2)CC1)C(C)C
  .	-5	-1.0%	-0.9	-18	-13	-4
O=C(O)/C=C/C(=O)OC1CC2CCC1C2 (stereo unspecified)
  5%	6	-1.8%	2.8	-51	1	3
Cc1cccc(NC2=C(Cl)C(=O)OC2NC(=O)c2ccccc2)c1 (stereo unspecified)
  3%	0	-5.9%[38.3 µM]	-2.4	-10	-20	1
COc1ccccc1N(CC(=O)NCCc1ccccc1)S(C)(=O)=O
  -13%	-2	-1.3%[38.3 µM]	-2.7	-7	-3	2
Cc1ccc(NC(=O)C2CCCN(S(=O)(=O)c3cnc[nH]3)C2)cc1F (stereo unspecified)
  4%	-11	11%	-7.2	1	-1	-5
O=C(NCCCN1CCOCC1)C1CC(=O)N(CCc2ccccc2)C1 (stereo unspecified)
  12%	11	0.4%	1.1	-9	-9	6
Cc1ccc(-c2[nH]ncc2/C=C(\C#N)C(=O)NC2CCCCC2)cc1
  ?	-5	0.7%	-4.3	-19	9	-5
O=C(Nc1ccccn1)Nc1ccccc1[N+](=O)[O-]
  5%	-5	-1.4%	-1.8	4	-4	-11

Going on with the list.
Each structure is followed by: Sfp inh	CtBP-E1A blk	PINK1 modulator	D2 ag	TRPV1 PAM	D2 PAM	Six1-Eya2 inh
CN=C1c2cc3cc(OC)ccc3n2CCN1C
  18%	4	3.5%[38.3 µM]	-3.3	7	-18	-2
COc1cccc(/C=C2\SC(=S)N(CCCC(=O)N3CCCCC3CCO)C2=O)c1 (stereo unspecified)
  -24%	.	6.3%	6.5	?	-3	-14
CC(=O)c1c(O)c(C)c(O)c2c1OC1=Cc3c(c(C)nn3C)C(=O)C12C (stereo unspecified)
  .	4	1.2%	-4.7	.	1	-3
COc1ccc(CNS(=O)(=O)c2c(C)[nH]c(C)c2C(=O)N2CCCCC2)cc1
  10%	9	0.6%	-21	2	1	3
CCCCCCCNC1=CC(=O)CC(c2ccco2)C1 (stereo unspecified)
  -5%	3	-2.1%	-0.9	4	-7	-6
Cc1ccc(NC(=O)CSc2cccc[n+]2[O-])c([N+](=O)[O-])c1
  19%	10	0.4%	-1.4	-3	-11	-2
O=C(NCc1ccccc1)c1cc(C2CCCCN2C(=O)CCCc2ccccc2)on1 (stereo unspecified)
  .	-6	2.7%	-4.0	.	-5	2
Cc1c(-c2nc(N)nc(Nc3ccc(F)cc3)n2)oc2ccccc12
  4%	35	1.4%	0.7	-2	7	26
COc1ccc(NC(=O)CSc2nnc(CC(=O)Nc3ccc(F)cc3)n2C)cc1
  16%	-6	4.1%	-2.4	-7	-4	-3
O=C(COC(=O)c1ccc(Cl)cc1Cl)Nc1cccc(S(=O)(=O)NC2=NCCC2)c1
  .	-9	0.6%	4.0	-6	-2	-11

Later entries.
Each structure is followed by: Sfp inh	CtBP-E1A blk	PINK1 modulator	D2 ag	TRPV1 PAM	D2 PAM	Six1-Eya2 inh
CN(Cc1ccccc1)C(=O)CCCn1c(=O)c2cccn2c2cccnc21
  9%	-8	-0.1%	-5.7	22	-11	-5
CNC(=O)CN(c1ccc(C23CC4CC(CC(C4)C2)C3)cc1)S(C)(=O)=O
  -11%	-1	0.7%	-1.8	3	-2	-2
COc1ccccc1NC1=C(Cl)C(=O)OC1OC(=O)c1ccco1 (stereo unspecified)
  11%	4	4.8%	-2.2	13	-3	-4
COc1ccc(C=NNC(=O)c2ccccc2NS(=O)(=O)c2cccs2)cc1O
  .	-15	0.6%	3.7	.	8	-22
CCN(CCn1cccn1)C(=O)CCc1nnc(CCc2ccccc2OC)o1
  9%	0	-1.1%	0.1	-9	-4	3
Cc1ccc(OCc2nc(-c3ccccn3)no2)c(Br)c1
  -17%	21	-1.7%	-3.0	30	1	1
CCn1ccnc1CN(C)C(=O)CC1C(=O)NCCN1Cc1c(F)cccc1Cl (stereo unspecified)
  -1%	8	2.6%	1.3	10	-4	-3

5 compounds out of the list, sorted by length of the SMILES, low to high.
Each structure is followed by: Sfp inh	CtBP-E1A blk	PINK1 modulator	D2 ag	TRPV1 PAM	D2 PAM	Six1-Eya2 inh
CSc1ccccc1NC(=O)CN1CC(C)OC(C)C1 (stereo unspecified)
  17%	-4	-0.5%	-1.2	4	-3	5
O=C(NCCCN1CCOCC1)C(C(=O)c1ccccc1)n1ccccc1=O (stereo unspecified)
  -4%	4	-2.8%	-1.9	5	-4	7
CN(Cc1ccccc1)C(=O)CCCn1c(=O)c2cccn2c2cccnc21
  9%	-8	-0.1%	-5.7	22	-11	-5
COc1cccc(/C=C2\SC(=S)N(CCCC(=O)N3CCCCC3CCO)C2=O)c1 (stereo unspecified)
  -24%	.	6.3%	6.5	?	-3	-14
CC1(C)Cc2c(sc3[nH]c(=O)n(CC(=O)NCC4CCCO4)c(=O)c23)CO1 (stereo unspecified)
  3%	3	0.7%	0.1	6	0	9
